# Source: PubChem BioAssay (ICCB-Longwood Screening Facility, Harvard Medical School)
# MenB inh: blocks the Mycobacterium tuberculosis MenB enzyme; MenB enzyme assay, absorbance read-out; some hits fall short of the stated cut; inhibition, %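 (about 12 µg/mL by stock and volumes)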; hit rate 0.43% among 100,000;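 active = mean of two replicates above 30%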;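 note: 0% = no compound and 100% = wells with inactive enzyme; the first replicate is given; strong numbers were not always called active; inactives centre near -10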
# Target sequence (P9WNP5 whole entry, looked up): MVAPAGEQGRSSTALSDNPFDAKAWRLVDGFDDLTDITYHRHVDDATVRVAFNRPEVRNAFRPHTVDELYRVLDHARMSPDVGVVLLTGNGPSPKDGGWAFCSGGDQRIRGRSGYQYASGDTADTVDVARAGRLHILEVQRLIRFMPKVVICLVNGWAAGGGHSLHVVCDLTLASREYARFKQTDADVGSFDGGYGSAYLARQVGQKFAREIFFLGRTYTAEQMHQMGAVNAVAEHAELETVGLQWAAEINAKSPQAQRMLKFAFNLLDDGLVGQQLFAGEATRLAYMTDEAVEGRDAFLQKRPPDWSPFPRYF
# PV pol inh: poliovirus RNA polymerase inhibition; P03300; poliovirus polymerase elongation, fluorescence polarization; hits give low values; % elongation, % (compound at 16.7 µg/mL); hit rate 0.66% among 150,000; in the data active = % elongation below about 90%; note: some results filed as inactive read as strong as hits
# Mtb MbtI inh: MbtI salicylate synthase inhibition. P9WFX0. purified MbtI enzyme, fluorescence intensity read-out. inhibition, %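 (about 17 µg/mL by stock and volumes)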. hit rate 0.89% among 100,000. AID 493033;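 active = above 50% in both replicates, above 80% if mildly self-fluorescent; inactive = the rest, strongly fluorescent compounds included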;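 note: 0% = mean of negative and 100% = mean of positive controls; one replicate is shown; some compounds called inactive have numbers as strong as hits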
# Target sequence (P9WFX0 whole entry, looked up): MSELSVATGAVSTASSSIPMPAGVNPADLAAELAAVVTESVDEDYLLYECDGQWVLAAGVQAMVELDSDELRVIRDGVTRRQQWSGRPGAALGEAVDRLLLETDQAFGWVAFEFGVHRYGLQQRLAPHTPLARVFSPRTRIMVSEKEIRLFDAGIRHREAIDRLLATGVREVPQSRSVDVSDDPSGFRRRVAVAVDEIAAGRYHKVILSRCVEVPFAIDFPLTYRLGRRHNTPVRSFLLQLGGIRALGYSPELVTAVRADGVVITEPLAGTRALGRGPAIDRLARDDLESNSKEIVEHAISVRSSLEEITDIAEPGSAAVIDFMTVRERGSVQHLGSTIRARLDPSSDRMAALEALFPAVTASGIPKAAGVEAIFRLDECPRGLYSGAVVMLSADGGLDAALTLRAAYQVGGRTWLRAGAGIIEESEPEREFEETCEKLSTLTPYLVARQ
# PV pol inh intensity: further read-out of PV pol inh, marked with its call; % elongation; measured here: total intensity read-out; formula for this scale not given here;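 total fluorescence in place of polarization; lower means less elongation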
# * = called active by the depositor; i = inactive; . = no result given.
cpd	smiles	MenB inh	PV pol inh
1	O=C(COc1ccc(-n2cnnn2)cc1)Nc1ccccc1	-12	108
2	CCOc1ccc2oc(-c3ccccc3)c(C(=O)O)c2c1	-1	101
3	NNC(=S)Nc1ccc(S(=O)(=O)N2CCOCC2)cc1	-13	107
4	CCN(CC)c1ccc(-n2nc3cc(C)c(N)cc3n2)cc1	-39	99
5	O=C(COC(=O)C1CC(=O)N(Cc2ccco2)C1)NC1CCCc2ccccc21 (stereo not drawn)	-22	105
6	Cc1ccc(N(C(=O)Nc2c(-c3c(Cl)cccc3Cl)noc2C)S(C)=O)cc1 (stereo not drawn)	-15	103
7	Cc1cc(C)nc(N/C=C(\C#N)S(=O)(=O)c2ccccn2)n1	7	100
8	OCCN1C2=NCCCN2c2ccccc21	-4	100
9	O=C(Cn1cc(C(F)(F)F)ccc1=O)Nc1ccc(S(=O)(=O)N2CCCC2)cc1	17	106
10	O=c1c2cnn(-c3ccccc3)c2ncn1Cc1cccnc1	-3	101
11	COc1cc(/C=C2/C(=N)N3C=CSC3=NC2=O)cc(OC)c1OCCOc1ccc(C)c(C)c1	-31	104
12	COc1cccc(C2/C(=C(/O)c3ccc(Cl)cc3)C(=O)C(=O)N2c2ccc(OCC(=O)O)cc2)c1 (stereo not drawn)	-42	106

cpd	PV pol inh intensity	Mtb MbtI inh
1	110	-17
2	102	115
3	108	12
4	105	i
5	102	10
6	101	-4
7	99	2
8	103	-12
9	99	15
10	101	-1
11	106	2
12	109	.

# Further results follow.
cpd	smiles	MenB inh	PV pol inh
13	CN(Cc1nccn1C)C(=O)c1ccc2c(c1)S(=O)(=O)c1ccccc1C2=O	-17	102
14	O=C(CCN1C(=O)c2ccccc2Sc2ncccc21)NCCc1ccc(Cl)cc1	-11	103
15	Cc1cc(C)n(C(=O)c2ccc(Cl)cc2)n1	-13	99
16	CN(C)CCNC(=O)c1ccc(/C=C2\SC(=S)N(C)C2=O)cc1	-32	.
17	C=CCN(CC=C)C(=O)c1ccc(N2C(=O)CCC2=O)cc1	-9	97
18	COc1cccc(/C=N/NC(=O)Cc2cccs2)c1	-22	105
19	Cc1nc(COC(=O)c2cc(O)c3ccccc3c2O)cs1	-23	98
20	CC(C)(C)NC(=O)c1ccncc1	-38	99
21	CC(C)N(C(=S)NCc1ccccc1)C(C)C	-17	101
22	OCCSCCc1ccncc1	-5	101
23	CC(C)(Oc1ccc(Cl)cc1)C(=O)N1CCCCC1	-8	104
24	O=C(CN1C(=O)S/C(=C\c2ccco2)C1=O)Nc1ccc(O)c(C(=O)O)c1	8	99

cpd	PV pol inh intensity	Mtb MbtI inh
13	100	3
14	103	-8
15	103	.
16	.	6
17	100	-9
18	103	2
19	104	146
20	101	0
21	104	-7
22	98	-21
23	103	.
24	107	-15

# Next structures:
cpd	smiles	MenB inh	PV pol inh
25	Cc1nn2c(=O)cc(COc3cccc(NC(=O)c4cccs4)c3)nc2s1	10	100
26	Cc1cc(=O)[nH]c2ccccc12	4	100
27	CCOc1ccc(N/C=C/C(=O)c2ccco2)cc1	-247	101
28	Cc1cc(-c2nnc(SCC(N)=O)n2CC2CCCO2)cs1 (stereo not drawn)	-7	101
29	O=C1CSCC(=O)N1c1csc(C(F)(F)F)c1-c1ccccc1	0	103
30	CCCCCc1nnc(NC(=O)c2cccc(S(=O)(=O)N3CCCC3)c2)s1	-38	101
31	O=C(O)CCNc1ccc(Cl)cn1	-58	107
32	COc1ccc(C(=O)NCCCCN2CCN(c3ncccc3C(F)(F)F)CC2)cc1	-9	101
33	Cc1nn(-c2ccccc2)c(C)c1P(=Nc1ccccc1C(=O)O)(N1CCOCC1)N1CCOCC1	-15	104
34	N#Cc1cnn(-c2ccc(F)c(Cl)c2)c1N	6	100
35	C=CCc1ccccc1OCC(O)Cn1c2ccccc2c2ccccc21 (stereo not drawn)	-44	104
36	COc1ccc(-c2cnc3/c(=C4\CCCN4C)c(=O)n(-c4ccccc4)n23)cc1	-18	106

cpd	PV pol inh intensity	Mtb MbtI inh
25	97	4
26	105	39
27	101	7
28	101	1
29	106	4
30	96	-2
31	100	89
32	99	-6
33	106	-4
34	108	0
35	100	21
36	109	4

# (more compounds)
cpd	smiles	MenB inh	PV pol inh
37	O=C(CSc1ccccn1)Nc1ccccc1C(F)(F)F	4	99
38	Cc1cc(Cl)c(S(=O)(=O)NCc2ccco2)cc1OCC(=O)NC1CCCCC1	-27	103
39	CC(NC(=O)/C=C1\Sc2ccccc2NC1=O)c1ccccc1 (stereo not drawn)	-3	103
40	CCC1Oc2ccccc2N(Cc2ccccc2C)C1=O (stereo not drawn)	10	99
41	O=C(CN(C(=O)CSc1nc2ccccc2o1)c1cccc(F)c1)NC1CCCCC1	28	102
42	O=C(Nc1ccc2ccccc2c1)C1CC(=O)N(C2CCCCC2)C1 (stereo not drawn)	-28	104
43	COc1ccc(-c2nc3cc(C)ccc3o2)cc1	-8	105
44	Cc1ccccc1S(=O)c1ccccc1C(=O)O (stereo not drawn)	2	97
45	COCCCNC1CCC(C)C1 (stereo not drawn)	6	99
46	Cc1nn(C)c(C)c1Nc1n[nH]c(N)n1	7	103
47	CC(C)C(C)(C#N)NC(=O)CSc1nc(N)cc(=O)[nH]1 (stereo not drawn)	17	96
48	CCCCn1c(N)c(N(C(=O)c2ccc(N3CCCC3=O)cc2)C2CCCC2)c(=O)[nH]c1=O	-22	104

cpd	PV pol inh intensity	Mtb MbtI inh
37	108	.
38	104	-9
39	101	-3
40	97	11
41	102	-2
42	100	-33
43	111	2
44	92	34
45	102	-8
46	107	-13
47	98	-30
48	108	3

# Remaining list, next part.
cpd	smiles	MenB inh	PV pol inh
49	O=C(O)CCn1nc(-c2ccc(F)cc2)ccc1=O	-12	108
50	OCC1OC(Nc2ccccc2)CC1O (stereo not drawn)	-13	106
51	Cc1cc(Oc2cc(C#N)c3ccccc3n2)ccc1Cl	-5	102
52	C/C(=N\N1C(=O)c2ccccc2NC12CCCCC2)c1ccccc1O	-99	103
53	CCOC(=O)C1=C(NN(C)c2ccc(OC)cc2)CN(C(=O)c2ccccc2)C1	-32	109
54	Cc1nn(-c2ccccc2)c2sc(C(=O)O)cc12	.	103
55	O=C(CCCn1nc(-c2ccccc2)c2cc(Cl)ccc21)NCCc1ccccc1	-26	106
56	Cc1ccc(NC(=O)CN(C)C(=O)Cn2c(=O)oc3ccccc32)cc1	-7	108
57	Cc1c(C(=O)NCc2ccco2)oc2c1C(O)CC(C)(C)C2 (stereo not drawn)	-13	99
58	O=C(CSc1nnc2ccc3ccccc3n12)NCC1CCCO1 (stereo not drawn)	-8	99
59	N#CCCS(=O)(=O)c1ccc(N)cc1	-11	106
60	CC(O)/C=C/c1ccc2ccccc2n1 (stereo not drawn)	11	99

cpd	PV pol inh intensity	Mtb MbtI inh
49	106	9
50	105	.
51	107	.
52	99	-15
53	117	.
54	103	-2
55	105	33
56	122	8
57	105	-6
58	105	63
59	110	.
60	103	23

# 23 entries already listed, ordered by number of heavy atoms, lowest first:
cpd	smiles	MenB inh	PV pol inh
22	OCCSCCc1ccncc1	-5	101
20	CC(C)(C)NC(=O)c1ccncc1	-38	99
59	N#CCCS(=O)(=O)c1ccc(N)cc1	-11	106
60	CC(O)/C=C/c1ccc2ccccc2n1 (stereo not drawn)	11	99
34	N#Cc1cnn(-c2ccc(F)c(Cl)c2)c1N	6	100
21	CC(C)N(C(=S)NCc1ccccc1)C(C)C	-17	101
44	Cc1ccccc1S(=O)c1ccccc1C(=O)O (stereo not drawn)	2	97
18	COc1cccc(/C=N/NC(=O)Cc2cccs2)c1	-22	105
47	CC(C)C(C)(C#N)NC(=O)CSc1nc(N)cc(=O)[nH]1 (stereo not drawn)	17	96
51	Cc1cc(Oc2cc(C#N)c3ccccc3n2)ccc1Cl	-5	102
4	CCN(CC)c1ccc(-n2nc3cc(C)c(N)cc3n2)cc1	-39	99
16	CN(C)CCNC(=O)c1ccc(/C=C2\SC(=S)N(C)C2=O)cc1	-32	.
58	O=C(CSc1nnc2ccc3ccccc3n12)NCC1CCCO1 (stereo not drawn)	-8	99
42	O=C(Nc1ccc2ccccc2c1)C1CC(=O)N(C2CCCCC2)C1 (stereo not drawn)	-28	104

cpd	PV pol inh intensity	Mtb MbtI inh
22	98	-21
20	101	0
59	110	.
60	103	23
34	108	0
21	104	-7
44	92	34
18	103	2
47	98	-30
51	107	.
4	105	i
16	.	6
58	105	63
42	100	-33

cpd	smiles	MenB inh	PV pol inh
52	C/C(=N\N1C(=O)c2ccccc2NC12CCCCC2)c1ccccc1O	-99	103
35	C=CCc1ccccc1OCC(O)Cn1c2ccccc2c2ccccc21 (stereo not drawn)	-44	104
6	Cc1ccc(N(C(=O)Nc2c(-c3c(Cl)cccc3Cl)noc2C)S(C)=O)cc1 (stereo not drawn)	-15	103
36	COc1ccc(-c2cnc3/c(=C4\CCCN4C)c(=O)n(-c4ccccc4)n23)cc1	-18	106
14	O=C(CCN1C(=O)c2ccccc2Sc2ncccc21)NCCc1ccc(Cl)cc1	-11	103
41	O=C(CN(C(=O)CSc1nc2ccccc2o1)c1cccc(F)c1)NC1CCCCC1	28	102
48	CCCCn1c(N)c(N(C(=O)c2ccc(N3CCCC3=O)cc2)C2CCCC2)c(=O)[nH]c1=O	-22	104
11	COc1cc(/C=C2/C(=N)N3C=CSC3=NC2=O)cc(OC)c1OCCOc1ccc(C)c(C)c1	-31	104
12	COc1cccc(C2/C(=C(/O)c3ccc(Cl)cc3)C(=O)C(=O)N2c2ccc(OCC(=O)O)cc2)c1 (stereo not drawn)	-42	106

cpd	PV pol inh intensity	Mtb MbtI inh
52	99	-15
35	100	21
6	101	-4
36	109	4
14	103	-8
41	102	-2
48	108	3
11	106	2
12	109	.

# Next compounds:
cpd	smiles	MenB inh	PV pol inh
61	Cc1ccc(N2C(=O)CC(Nc3ccc(S(=O)(=O)N4CCCC4)cc3)C2=O)c(C)c1 (stereo not drawn)	-15	100
62	O=C(c1ccc(-c2ccc(F)cc2)o1)N1CCC(c2ccccc2)CC1	-30	102
63	COc1cc(OC)c(N(C)C(=O)c2ccc3c(=O)n4c(nc3c2)CCCCC4)cc1Cl	-28	.
64	CS(=O)(=O)CS(=O)(=O)C1=C(N2CCOCC2)C2CCN1CC2	-21	102
65	CN=c1scc(-c2cc(OC)ccc2OC)n1/N=C/c1ccco1	-39	105
66	CC(O)(C(=O)Nc1ccc(S(=O)(=O)c2ccccc2)cc1)C(F)(F)F (stereo not drawn)	.	100
67	Cc1nc2ccc(NC(=O)CS(=O)(=O)c3ccc(F)cc3)cc2s1	-14	108
68	C/C(=N\OC(=O)c1ccc(S(=O)(=O)N2CCCC(C)C2)cc1)c1ccc(C)o1 (stereo not drawn)	-30	102
69	OCCCNCc1ccccc1Cl	8	101
70	CC(=S)N1CCN(C(C)=S)CC1	-16	109
71	Cc1ccc(SCC(=O)N2CCOCC2)cc1	3	101
72	CCOC(=O)C1CCCN(C(=S)NC2CCCC2)C1 (stereo not drawn)	-3	103

cpd	PV pol inh intensity	Mtb MbtI inh
61	99	8
62	100	44
63	.	-13
64	105	6
65	107	2
66	101	-9
67	98	-2
68	107	0
69	104	0
70	114	.
71	103	-2
72	100	-7

# The list continues:
cpd	smiles	MenB inh	PV pol inh
73	O=C(c1ccc(C(=O)N2CCc3ccccc3C2)cc1)N1CCc2ccccc2C1	-16	109
74	CC(C(=O)Nc1ccc(S(=O)(=O)N2CCCCC2)cc1)N1CCCCCC1 (stereo not drawn)	-5	100
75	Cc1cc(OC(=O)c2ccccc2)n(CCC#N)n1	.	99
76	Cc1ccc(N2CCN(Cc3sccc3C)CC2)cc1	1	100
77	CCCNC(=O)C1=C(C)C(=O)OC12CCN(CC)CC2	3	102
78	CN1CCN(Cc2nnnn2CC2CCCO2)CC1 (stereo not drawn)	-4	99
79	O=C(CSC1=NCCS1)NC(=O)c1ccccc1	-24	114
80	CCOc1ccc(NC(=O)NS(=O)(=O)c2ccc(C)cc2)cc1	-15	97
81	CC(C)C1(C)N=C(c2ncccc2C(=O)O)NC1=O (stereo not drawn)	7	99
82	O=C(NCc1ccccc1)c1ccc2nc(-c3cccs3)c(-c3cccs3)nc2c1	-24	107
83	O=C(Cc1ccsc1)NCCc1ccc2c(c1)OCCO2	-31	100
84	CC(C)c1c(C#N)c(N)nc(SCC(=O)c2cc3ccccc3oc2=O)c1C#N	-4	97
85	C=CCn1c(Br)nc2c1c(=O)n(C)c(=O)n2C	-7	100

cpd	PV pol inh intensity	Mtb MbtI inh
73	114	.
74	95	-10
75	102	-3
76	98	-4
77	104	-13
78	99	0
79	157	.
80	100	8
81	103	-2
82	108	22
83	97	-1
84	96	15
85	102	-13

# Rows are unselected, and some 1.8% of all compounds hit somewhere here.
